# Rce1 inhib: yeast Ras-converting enzyme inhibition; Q03530; yeast membranes, quenched prenylated peptide cleavage fluorescence; calls only; 0.27% of 290,000 active;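 active = fall in fluorescence gain of 50% or more versus controls, with final raw signal at or below 3038400; inconclusive = same 50% fall but final raw signal above 3038400; inactive = fall in fluorescence gain under 50%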;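 also: plate controls were neutral control wells for no effect and wells lacking membranes for full effect; tested at 10 µM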
# HIV Env fusion: inhibitors of HIV Env-mediated cell fusion | 1.1% of 360,000 active | inhibition, % at 12.3 µM | AID 651610 | HeLa-JRFL Env/CEM21 cell fusion, luciferase;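 active = mean replicate inhibition score of at least 50 and every replicate individually at or above 50; inconclusive = only one of the two criteria met; inactive = mean below 50 and not all replicates reaching 50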;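 also: 0% = plate neutral controls and 100% = maraviroc near 300 nM; one replicate is shown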
# MT1-MMP act inh: inhibitors of human MT1-MMP activation | P50281 | HT1080 RFP-PRO-GFP cells, GFP/RFP ratio fluorescence, overnight; percent of plate control window, DMSO zero | GFP/RFP ratio change, % at 20 µM | 0.061% of 360,000 active | AID 651647;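 active = GFP/RFP ratio change of at least 30% with cell ATP level not reduced by more than half and red fluorescence within 50% of control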; also: strong numbers were not always called active
#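 Assay system – RFP-PRO-GFP reporter HT1080 cells · Compound dosing – single dose of 20 µM compound, 1% DMSO final · Incubation – overnight compound exposure at 37 °C · Measure – GFP/RFP fluorescence ratio · Benchmarks – DMSO wells and RFP-L50D-GFP cells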
# CSC inhib: blocks cancer stem cells; 1.1% of 300,000 active; inhibition, % at 7.5 µM; cancer stem cell-like cells viability, luminescence;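 active = mean at 75% or more and at least half the replicates too; inconclusive = mean and replicates disagree; tested in HMLE shEcad cells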;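 also: 0% = median of negative and 100% = median of positive control wells; the first replicate is given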
# Yeast UUG start: modulators of start codon recognition fidelity in yeast | S. cerevisiae UUG-firefly luciferase reporter, luminescence/redox ratio | activity score, % at 18.7 µM | 0.13% of 350,000 active | AID 602363;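 active = replicate mean at a twofold rise or more, about +100% in these data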;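 also: firefly luciferase made from a UUG start codon reports start codon fidelity; reporter light over untreated wells divided by growth signal over untreated wells; some hits fall short of that in this replicate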
# PABP polyA inh: PABP-poly(A) binding inhibition; P11940; PABP-poly(A) RNA binding, fluorescence polarization; inhibition, % at 35 µM; 1% of 290,000 active; AID 2014;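 active = 50% or more with normal probe brightness, or confirmed in later tests; inconclusive = above 50% with abnormal brightness, or retests that disagree; inactive = below 50% or failed in later tests; about a fifth of its hits are not listed in these tables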;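 also: calls also rest on retests at 20 µM and on dose response follow-up; controls were probe without protein and protein plus probe with vehicle; some compounds called inactive have numbers as strong as hits; many hits fall short of the cut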
# Target sequence (P11940 whole entry, looked up): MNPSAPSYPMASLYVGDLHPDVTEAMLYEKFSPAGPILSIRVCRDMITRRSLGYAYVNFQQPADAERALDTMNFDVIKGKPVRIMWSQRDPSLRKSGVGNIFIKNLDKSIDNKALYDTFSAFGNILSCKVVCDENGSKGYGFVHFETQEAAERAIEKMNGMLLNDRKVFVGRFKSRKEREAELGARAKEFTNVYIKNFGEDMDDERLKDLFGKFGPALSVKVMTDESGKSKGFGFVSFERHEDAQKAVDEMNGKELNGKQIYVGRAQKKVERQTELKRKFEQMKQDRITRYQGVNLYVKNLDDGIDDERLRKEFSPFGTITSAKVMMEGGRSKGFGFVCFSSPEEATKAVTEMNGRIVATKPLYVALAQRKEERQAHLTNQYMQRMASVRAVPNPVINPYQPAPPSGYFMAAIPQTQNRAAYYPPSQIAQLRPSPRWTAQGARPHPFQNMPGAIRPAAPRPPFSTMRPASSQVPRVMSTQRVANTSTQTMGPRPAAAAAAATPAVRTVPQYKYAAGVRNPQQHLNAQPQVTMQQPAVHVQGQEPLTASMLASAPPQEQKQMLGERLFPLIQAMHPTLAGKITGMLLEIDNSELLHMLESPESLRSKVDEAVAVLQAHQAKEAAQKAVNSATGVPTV
# eIF4H FP inh: inhibitors of RNA binding by human eIF4H | inhibition, % at 35 µM | Q15056 | eIF4H fluorescence polarization binding assay | 0.94% of 290,000 active;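 active = 50% or more with normal probe brightness, or confirmed in later tests; inconclusive = above 50% with abnormal brightness, or retests that disagree; inactive = below 50% or failed in later tests; about a fifth of its hits are not listed in these tables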;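 also: calls also rest on retests at 20 µM and on dose response follow-up; 0% = protein and probe with vehicle and 100% = probe without protein; strong numbers were not always called active; many hits fall short of the cut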
# eIF4H FP inh retest: second read-out of eIF4H FP inh, no call of its own (marks repeat the call); inhibition, %; compound at 20 µM; confirmation average;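 mean of two retest wells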
# PABP polyA inh retest: recorded beside PABP polyA inh, whose call it bears; inhibition, %; compound at 20 µM; confirmation repeats;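 mean of two retest wells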
# MT1-MMP act inh RFP: further read-out of MT1-MMP act inh, marked with its call; RFP signal change, %; measured here: RFP expression control read;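 0 = vehicle wells; hits needed this value within 50% of zero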
# * = called active by the depositor; i = inactive; ? = inconclusive; . = no result given.
SMILES,Rce1 inhib,HIV Env fusion,MT1-MMP act inh,MT1-MMP act inh RFP,CSC inhib,Yeast UUG start,PABP polyA inh,eIF4H FP inh,others
O=C(c1ccccc1)N1CCC(c2nc3c(nnn3Cc3ccco3)c(=O)[nH]2)CC1,i,-10,.,.,.,7,3,-11,
CCn1c(SCC(=O)Nc2ccc(OC)cc2)nc2nc3c(cc2c1=O)COC(C)(C)C3,i,11,6,4,-6,-15,1,-7,
O=C(Nc1ccc2c(c1)OCO2)c1cc(C2CCCCN2C(=O)c2ccc3ccccc3c2)on1 (stereo not drawn),.,-11,-3,-7,.,-12,.,.,
COc1ccc(S(=O)(=O)N(C)C[C@H]2Oc3ccc(NS(=O)(=O)c4ccccc4)cc3CC(=O)N([C@H](C)CO)C[C@@H]2C)cc1,.,7,-1,0,-4,-5,.,.,
CC(C(=O)NCCS(=O)(=O)c1ccc(Br)cc1)S(=O)(=O)c1ccc(Cl)cc1 (stereo not drawn),i,5,0,1,-16,-16,-1,-8,
CC(=O)Nc1ccc(S(=O)(=O)Nc2nccc(/C=C/c3ccc(Cl)cc3)n2)cc1,i,14,0,-5,11,.,1,5,
COc1ccccc1-n1cc(CN2CCN(CC=C(C)C)C(CCO)C2)cn1 (stereo not drawn),i,9,1,0,6,-9,1,1,
O=C(CN1CCCN(S(=O)(=O)c2ccc(Br)cc2)CC1)Nc1ccc2c(c1)OCO2,i,.,.,.,.,.,-6,-12,
CN(C)c1ccc(C(=O)/C=C/c2ccco2)cc1,i,-147,0,6,15,.,2,88,eIF4H FP inh retest=-1;PABP polyA inh retest=0
CC(C)(C)c1ccc(C(=O)OCc2c(-c3ccccc3)ncc3ccccc23)cc1,.,-73,-1,-2,.,-5,.,.,
COc1ccc(-c2cnc3c(NC(C)=O)cc(-c4cccc(C(=O)NCCN(C)C)c4)cn23)cc1OC,.,-7,-1,0,.,0,.,.,
O=C(N1CCCCC1)N1CCCN(C(=O)N2CCCCC2)CC1,i,.,4,2,.,3,-4,7,
Cc1ccc(S(=O)(=O)NC(=O)C2(C)CCN2C(=O)Cc2cccs2)nc1 (stereo not drawn),.,-13,-1,6,.,-9,.,.,
O=C(N1CCCC1)C12CCC3CC(CC(C3)C1)C2,.,7,-5,-2,3,15,-2,11,
Cc1cnn(C(=S)NCC2CCCO2)c1 (stereo not drawn),i,23,-1,1,-2,-13,7,0,

# Entries from the list above that contain a furan ring, fused or not, in the order listed:
SMILES,Rce1 inhib,HIV Env fusion,MT1-MMP act inh,MT1-MMP act inh RFP,CSC inhib,Yeast UUG start,PABP polyA inh,eIF4H FP inh,others
O=C(c1ccccc1)N1CCC(c2nc3c(nnn3Cc3ccco3)c(=O)[nH]2)CC1,i,-10,.,.,.,7,3,-11,
CN(C)c1ccc(C(=O)/C=C/c2ccco2)cc1,i,-147,0,6,15,.,2,88,eIF4H FP inh retest=-1;PABP polyA inh retest=0

# Next part:
SMILES,Rce1 inhib,HIV Env fusion,MT1-MMP act inh,MT1-MMP act inh RFP,CSC inhib,Yeast UUG start,PABP polyA inh,eIF4H FP inh,others
CCOc1ccc2nc(NC(=O)c3cccc(-c4cc5ccccc5oc4=O)c3)sc2c1,i,2,-9,-10,41,.,-3,2,
Cc1ccccc1OCC(=O)NCC(=O)OCc1ccc(Br)cc1,i,4,1,7,-29,4,14,-14,
CC1CCCN(CC(O)COc2ccc(-c3ccccc3)cc2)C1 (stereo not drawn),.,-7,4,2,-3,-10,6,4,
O=C(O)/C=C/c1cnc2ccccc2c1,i,-13,2,2,1,.,25,-4,
COc1ccc(-n2c(Cc3cccn3C)nnc2SCC(=O)Nc2ccc3c(c2)OCCO3)cc1,i,-45,4,4,-2,-4,-10,2,
CCc1nnc(NC(=O)COc2ccc([N+](=O)[O-])cc2)s1,i,4,0,-2,-1,-10,-9,-3,
NN=C(c1cccc([N+](=O)[O-])c1)c1cccc([N+](=O)[O-])c1,i,-14,6,3,-10,-12,.,.,
O=C(Cn1cnc2c(OCc3ccccc3)ncnc21)NCCCc1ccccc1,.,20,3,4,.,-16,.,.,
O=C(COc1ncnc2ccc(Br)cc12)NCc1ccc2c(c1)OCO2,i,.,-1,2,-8,-13,-16,-8,
CN1C(=O)/C(=N\OC(=O)c2cccc3ccccc23)c2ccccc21,i,.,-5,1,19,-11,-1,-15,
Cc1ccccc1CN1CCN(C(=O)c2cc(-c3ccncc3)nc3ccccc23)CC1,i,6,-4,-5,17,-14,9,-3,
Fc1ccc(-n2cc(CNCCc3ccccn3)c(-c3ccccc3Cl)n2)cc1,i,?,-2,-1,-11,1,-5,3,
CCOc1ccc(-c2nn(-c3ccccc3)cc2/C=C2\SC(=S)N(C3CCS(=O)(=O)C3)C2=O)cc1 (stereo not drawn),i,-49,-28,-1,-18,-13,?,?,
Cc1cc(NS(=O)(=O)c2ccccc2)cc(Cl)c1O,.,-31,0,-3,6,-7,-5,-2,
COc1cccc2c1OCC(C(=O)NCc1ccc(Cl)cc1Cl)=C2,i,11,-1,0,6,15,-3,-6,
Cc1oc(-c2ccccc2F)nc1CN1CCC(C(=O)NCc2cccnc2)CC1,i,-34,-1,1,-2,-13,0,4,
Cc1ccc(C)c(NC(=O)Cn2nc(-c3ccccc3)nc2-c2ccccc2)c1,i,-53,4,0,-9,.,1,8,
COc1ccc(/C=N/Nc2cc(N3CCCC3)nc(N3CCCC3)n2)cc1,i,5,-23,-13,92*,13,-10,23,
CCCN1CCN(C(=S)Nc2ccc(SC(F)F)cc2)CC1,i,12,3,3,4,-29,-1,-4,
Cc1cccc(C(=O)NNS(=O)(=O)c2ccccc2)c1O,i,6,2,3,.,.,-2,6,
CCOC(=O)c1c(NC(=O)Cn2cnc3scc(-c4ccc(C)cc4)c3c2=O)sc(C)c1C,i,.,-8,2,-6,.,-3,-11,
CCCN1CCN(CCCNC(=O)Cn2nc(-c3ccc(C)cc3)ccc2=O)CC1,i,-20,4,2,-10,-4,3,6,
COC(=O)C1=C(C(=O)OC)[C@@H]2N(C)c3ccc(OC)cc3[C@@]23C[C@@H](C(=O)OC)N(C(=O)NC2CCCCC2)C3=N1,i,-17,2,5,1,-2,.,.,
Cn1c(=O)c2c(nc(NCCO)n2CCc2ccccc2)n(C)c1=O,i,?,2,-15,-25,.,-8,2,
Cc1nc2ncnn2c(N2CCN(C(=O)c3cccc(F)c3)CC2)c1C,i,.,0,-4,1,-10,-12,-9,
COc1ccc(N(C(=O)c2ccc(S(=O)(=O)N3CCOCC3)cc2)C2C=CS(=O)(=O)C2)cc1 (stereo not drawn),i,-60,2,4,-2,-17,9,-6,
Cc1noc(C)c1C(c1ccccc1)c1ccccc1,i,.,-5,-1,-7,.,2,-5,
CCC(=O)c1ccc2c(c1)OCCO2,i,-13,-2,3,9,.,-8,-16,
CN(CCOc1ccc(Cl)cc1)C(=O)c1cc(-c2ccco2)nc2ccccc12,i,7,-3,-4,14,-8,.,.,
O=C(NCCc1ccccc1)c1cccc(N2CCCC2=O)c1,i,.,-4,1,-12,-67,4,-13,
CSc1nc(-c2ccccc2)nc(SC)c1C(C)=O,i,-4,-4,-1,-8,-18,-1,-7,
CCN(c1ccccc1)S(=O)(=O)c1ccc(C(=O)Nc2c(C)n(C)n(-c3ccccc3)c2=O)cc1,.,57*,4,-4,-11,-4,.,.,
COc1cc(OC)cc(C(=O)NC(=S)N2CCN(c3ccc(C(F)(F)F)cc3[N+](=O)[O-])CC2)c1,i,.,9,-7,39,-27,-6,-2,
O=C(NC1CC1)c1cc(-c2ccco2)nc2ccccc12,i,.,-4,3,.,-22,82*,98*,
Cc1ccc(-c2csc3nc(-c4ccncc4)[nH]c(=O)c23)cc1,i,-1,-20,-25,10,-11,-8,-2,
CS(=O)(=O)Nc1ccc(C(=O)NCc2ccc3c(c2)OCO3)cc1,i,-51,3,2,-12,-2,3,1,
CC1CCc2c(sc(NC(=O)COC(=O)c3ccc(O)cc3)c2C#N)C1 (stereo not drawn),i,4,-1,-2,-6,-13,3,10,
COc1ccc(Nc2nc(C)cc(C)c2C(N)=O)cc1,i,.,3,5,-14,-18,5,-1,
COC(=O)COc1ccc(S(=O)(=O)NCc2ccccn2)cc1,i,4,-2,2,-10,-1,6,-9,
CCn1c(CCCOc2ccc(Cl)cc2Cl)n[nH]c1=S,i,-27,5,1,3,-33,-4,-9,
COCCNC(=O)CNC(=S)N(CCCN1CCOCC1)Cc1cccs1,i,-3,0,-7,-19,-19,-19,-4,
CCCCN(C(=O)CCC(=O)Nc1cc(C)on1)C(C(=O)NC1CCCC1)c1ccc(OC)cc1 (stereo not drawn),i,7,0,-2,-9,6,5,-9,
COC(=O)c1ccc(COC(=O)Cc2n[nH]c(=O)c3ccccc23)cc1,i,10,-3,-6,-9,.,-11,2,
NS(=O)(=O)c1ccc(NC(=O)Cc2cccs2)cc1,i,-12,-1,3,-5,-4,4,-6,
NS(=O)(=O)c1ccc(NN=C2CCCCC2)c([N+](=O)[O-])c1,i,4,1,-1,-9,-12,2,-2,
O=C(CN1CCN(S(=O)(=O)c2ccc(Cl)c(Cl)c2)CC1)N1CCCC1,.,-2,-2,-1,.,-8,.,.,
Cc1ccc(S(=O)(=O)CCC(=O)NCCc2ccccc2)cc1,i,5,-1,3,0,-9,-7,2,
CCOc1cc(N2CCOCC2)c(OCC)cc1NC(=O)COC(=O)c1ccccc1C,i,29,3,-4,12,.,4,2,
CC1CCN(CCCCOc2ccc(C(C)(C)C)cc2)CC1,i,12,4,3,60,5,-9,-9,
COc1ccccc1CCn1c(N)c(C#N)c2nc3ccccc3nc21,i,-22,-2,1,8,-25,6,-1,
Cn1cnc(S(=O)(=O)NCc2ccccc2)c1,i,-19,6,2,0,.,6,10,
COC(=O)c1sc(N2C(=O)C(=O)/C(=C(/O)c3ccc(C)cc3)C2c2ccco2)nc1C (stereo not drawn),i,.,.,.,-21,.,17,10,
CC(C)[C@H](NC(=O)OC(C)(C)C)c1nnc(SCC(=O)Nc2ccc(Br)cc2)o1,i,-92,-1,-3,-21,3,-5,2,
Cc1ccc(C(=O)NC(=S)NNC(=O)CCN2CCOCC2)cc1,i,1,2,3,-7,.,-12,12,
CC(=O)N1c2ccccc2C(C)(C)C2CCC(C)CC21 (stereo not drawn),i,-32,-1,7,-9,-17,8,-1,
Cc1ccc(CNC(=O)COC(=O)c2cnccn2)cc1,i,.,-5,4,6,.,-5,-2,
Cc1cc(Cl)c(S(=O)(=O)N2CCN(c3ccc(F)cc3)CC2)cc1OCC(N)=O,i,33,1,-11,11,4,-4,-8,
CCC1=Nc2cc(C(=O)NCc3cccnc3)ccc2Sc2ccc(C)cc21,i,-6,-3,-13,?,.,5,-2,
COc1cccc(-c2nn(C)c3sc(C(=O)NCCCN(C)Cc4ccccc4)cc23)c1,i,13,-1,-6,12,-2,-1,-3,
O=C(CSc1ncnc2c1oc1ccccc12)NCc1ccc(F)cc1,i,-27,2,5,12,-10,3,-10,
COc1ccc(C)cc1NC(=O)CN1CCN(C/C=C/c2ccccc2)CC1,i,-49,4,4,6,-16,6,-1,
CC(=O)c1sc(NC(=O)c2ccco2)nc1-c1ccccc1,i,.,3,5,-8,-9,2,-6,
FC(F)(F)c1cnc(-n2cc[nH]c2=S)c(Cl)c1,i,.,3,9,-10,-21,7,-5,

# Some of the compounds tested; count on the stated rates, not on these rows.
